ALR inh = inhibitors of human ALR sulfhydryl oxidase, primary screen, biochemical, H2O2 detection, HRP-luminol luminescence, single point; inhibition, % (no concentration beside the values); 3.8% of 290,000 active; AID 485317, 2010; purified ALR, DTT oxidation;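 active means mean and each replicate at 75% or more; inconclusive means only one of the two met; inactive means neither met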;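 further: stock transfer was 7.5 nL into about 7.5 µL; 0% = neutral wells and 100% = wells with inactivated enzyme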
Target sequence (P55789 whole entry, looked up): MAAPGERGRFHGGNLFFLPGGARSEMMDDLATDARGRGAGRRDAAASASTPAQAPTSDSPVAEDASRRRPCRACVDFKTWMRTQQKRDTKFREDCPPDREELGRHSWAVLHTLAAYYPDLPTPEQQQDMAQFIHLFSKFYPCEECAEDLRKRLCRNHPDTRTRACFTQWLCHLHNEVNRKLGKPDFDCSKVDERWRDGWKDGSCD
Beta2AR agonist = beta2AR agonists driving receptor internalization, primary screen, cell-based, FAP fluorogen, flow cytometry | Am2.2-beta2AR cells; reference of the scale not given here | Beta-2 adrenergic receptor (Homo sapiens), P07550 | AID 504454, 2011 | response, % (test concentration not listed) | 0.43% of 340,000 active;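 active means response above a set limit, near 3 SD of response in nonfluorescent compounds, cut at about 42% in these data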;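 further: stock transfer was 100 nL into about 11 µL; a reference agonist was the positive control; negative values mostly stem from fluorescent compounds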
Target sequence (P07550 whole entry, looked up): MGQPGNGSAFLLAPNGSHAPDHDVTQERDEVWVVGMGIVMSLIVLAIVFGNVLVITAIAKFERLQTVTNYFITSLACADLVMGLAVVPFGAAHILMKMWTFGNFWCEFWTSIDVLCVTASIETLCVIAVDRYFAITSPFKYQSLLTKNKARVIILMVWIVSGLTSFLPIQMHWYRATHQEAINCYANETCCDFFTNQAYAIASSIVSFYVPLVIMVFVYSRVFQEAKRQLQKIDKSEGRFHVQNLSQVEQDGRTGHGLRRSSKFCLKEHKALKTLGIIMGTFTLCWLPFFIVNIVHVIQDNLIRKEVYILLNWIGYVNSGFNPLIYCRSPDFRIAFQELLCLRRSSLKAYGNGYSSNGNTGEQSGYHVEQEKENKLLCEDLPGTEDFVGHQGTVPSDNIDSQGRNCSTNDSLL
Vif A3G = inhibitors of Vif binding to APOBEC3G peptide, primary screen, biochemical, TR-FRET, GST-Vif 1-94, biotin-A3G peptide, dose response retest (AID 1117319). TR-FRET GST-Vif / biotin-A3G peptide binding; higher % means a stronger effect; test concentration not given here; strong numbers were not always called active. inhibition, %, or IC50 in µM where a hit was titrated. 0.57% of 260,000 active;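 active means above the screen mean plus three standard deviations and confirmed in dose response; inconclusive means results disagree or hit not tested in dose response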;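 further: Vif residues 1-94 fused to GST binding biotinylated APOBEC3G peptide 110-148; 0% = full assay without inhibitor and 100% = GST in place of GST-Vif; retest series ran down from 100 µM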
Calb FLC = C. albicans growth inhibition with fluconazole, primary screen, CaCi-2 strain, Alamar Blue fluorescence; 0.57% of 300,000 active; AID 1979, 2009; growth inhibition, % (test concentration not listed); C. albicans CaCi-2 (fluconazole-resistant clinical isolate) + fluconazole, 48 h;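 active means most replicates above 75%; inconclusive means exactly half above 75%; inactive means most below 75%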;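 further: all wells also contain fluconazole at 8 µg/ml as a sub-toxic cotreatment; 0% = median of DMSO wells and 100% = median of geldanamycin control wells; wells of about 8 µL received 7.5 nL stock; the first replicate is given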
LANA-H2A inh = blockers of LANA interaction with H2A/H2B – biochemical, FP readout, HTS, primary screen; Protein LANA1 (Human herpesvirus 8 type P (isolate GK18)), Q9QR71; cell-free LANA-H2A/H2B peptide, fluorescence polarization; inhibition, % (test concentration not listed); 0.6% of 320,000 active; AID 2629, 2010; in the data active means inhibition mostly above about 10%, no sharp cut-off; inactive means mostly below about 6.7%;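 further: stock transfer was 7.5 nL into about 10 µL; 0% = median of vehicle wells and 100% = median of positive control wells; one replicate is shown; the record names a cut of 25% in any replicate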
HNF4A DNA FP = change in binding of human HNF4A to DNA, primary screen, biochemical, fluorescence polarization, FITC-DNA; Hepatocyte nuclear factor 4-alpha (Homo sapiens), P41235; 1 h; activity change, % at 10 µM; 0.3% of 360,000 active; AID 1224865, 2016; in the data active means activity change above about 30%, passing the limit was not always enough;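 further: controls were the assay level and a saturating level of protein; the project sought stronger binding though the title names inhibitors; some compounds called inactive have numbers as strong as hits; positive values seem to mean higher polarization but the record does not say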
Target sequence (P41235 whole entry, looked up): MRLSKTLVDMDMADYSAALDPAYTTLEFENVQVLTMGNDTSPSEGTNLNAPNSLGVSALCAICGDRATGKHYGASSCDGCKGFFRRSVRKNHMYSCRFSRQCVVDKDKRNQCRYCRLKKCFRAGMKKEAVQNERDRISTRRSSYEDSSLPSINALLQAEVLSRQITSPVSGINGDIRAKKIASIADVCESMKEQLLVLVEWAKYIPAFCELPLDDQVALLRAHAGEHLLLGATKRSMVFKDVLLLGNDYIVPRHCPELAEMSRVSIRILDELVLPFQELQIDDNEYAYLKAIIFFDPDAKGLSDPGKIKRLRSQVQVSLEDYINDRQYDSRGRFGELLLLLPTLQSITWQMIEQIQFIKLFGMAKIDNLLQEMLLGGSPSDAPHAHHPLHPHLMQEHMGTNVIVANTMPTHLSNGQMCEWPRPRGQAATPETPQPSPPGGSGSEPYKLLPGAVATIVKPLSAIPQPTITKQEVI
RanGTP-Imp inh = inhibitors of RanGTP-importin-beta interaction, primary screen, biochemical, FRET, CFP-Ran, YFP-importin-beta, homogeneous; cell-free CFP-Ran/YFP-importin-beta FRET ratio; 1.1% of 300,000 active; inhibition, % (no concentration beside the values); Ran GTPase (GTP-bound) - importin-beta complex; AID 2216, 2009;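 active means most replicates above 15%; inconclusive means exactly half above 15%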;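 further: 0% = DMSO wells and 100% = Ran loaded with GDP instead of GTP; wells of about 40 µL received 100 nL stock; the first replicate is given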
Numbers without * were called inactive; ? = inconclusive; . = not tested or not shown; & = joins results of further samples.

SMILES	ALR inh	Beta2AR agonist	Vif A3G	Calb FLC	LANA-H2A inh	HNF4A DNA FP	RanGTP-Imp inh
CN1CCN(CC(=O)Nc2ccc(OC(F)(F)F)cc2)CC1	-6	3	-4%	-6	-2.8	-3.0	?
Cc1ccc(-n2c(Cc3ccccc3)n[nH]c2=S)c(C)c1	11	-3	.	72*	5.8	5.4	-2.7
CCCCn1c(-c2ccccc2)cnc1SCC(=O)NCCc1ccc(OC)c(OC)c1	-20	-3	26%	-16	-3.8	2.6	4.9
CC(C)(C)C(=O)Nc1nnc(SCC(=O)Nc2nccs2)s1	-1	-6	.	0	5.1	-0.6	-0.6
Cc1cccc(-c2nnc(SCc3nc4ccccc4[nH]3)n2Cc2ccco2)c1	6	-4	8%	4	4.9	-1.4	-0.8
Cc1ccc(Nc2nc(CSc3nnnn3-c3ccccc3)cc(=O)[nH]2)cc1	5	5	27%	38	-8.5	2.7	2.2
O=C(CSCc1c[nH]c(=O)[nH]c1=O)OCC(=O)c1ccc(Br)cc1	-4	-3	-4%	11	7.1	2.7	1.5
CC(Sc1nnc(-c2cccs2)n1C1CC1)C(=O)NCC1CCCO1 (centres undefined)	-2	-1	2%	.	1.3	0.8	.
CC(C)(C)c1ccc(C(=O)NCC(=O)NCC(C)(C)N2CCOCC2)cc1	.	-1	2%	.	.	-2.7	.
COc1ccc(-c2nnc(OCc3nc4ccccc4n3C)c3ccccc23)cc1	-4	-6	.	1	-4.5	5.6	-0.6
Cc1onc(-c2c(Cl)cccc2Cl)c1C(=O)NN1CCCCCC1	10	-2	-3%	12	-5.5	0.8	-0.8
CCCCn1c(SCC(=O)N(C)C)nnc1-c1ccncc1	22	-17	.	7	-2.7	1.1	1.7
CC(=O)Nc1cc2c3c(c1)CCC(=O)N3CCC2	-25	0	-1%	0	6.2	2.7	-1.1
O=C(O)CCCNc1n[nH]c(=O)[nH]c1=O	-2	-4	-3%	-1	0.6	2.9	-0.8
O=C(N/N=C/C1CC2C=CC1C2)c1ccccc1O (centres undefined)	8	-5	10%	-8	-0.9	-2.0	3.2
O=C(c1ccco1)N1C(=O)c2cccc3cccc1c23	.	1	-8%	.	-1.0	-1.8	.
Cc1ccc(OCC(=O)O/N=C(\N)c2ccncc2)cc1C	-5	-13	.	17	0.8	-5.8	-1.7
COc1cccc(C(=O)/C=C/c2ccc(SC)cc2)c1	26	-2	-11%	10	1.6	3.3	-20
Nc1nnnn1/N=C/c1cc(Cl)cc(Cl)c1O	36	13	-6%	5	2.5	-47	-248
Cc1cc(C)cc(NC(=S)N2CCC(NC(=O)c3ccco3)CC2)c1	-26	-6	.	-12	-0.2	0.6	1.8
COc1ccc2[nH]c(C)c(CCNC(=S)Nc3ccc(F)cc3)c2c1	50	1	-1%	23	-0.6	3.1	-2.1
CSC(=N/N=C(\N)c1cnccn1)SC	3	1	-8%	-3	-2.8	-0.7	1.2
O=[N+]([O-])c1ccc2nonc2c1Nc1cccc(F)c1	-27	-1	-4%	25	-2.5	-0.8	-2.1
CC(C)C(=O)Nc1ccc(C(=O)N2CCN(C(=O)c3ccco3)CC2)cc1	.	.	?	-9	.	.	0.9
CCc1cccc(C)c1NC(=O)C1CCN(C(=O)c2ccc([N+](=O)[O-])cc2)CC1	-4	0	27%	?	4.0	-0.3	-1.8
COc1cccc(Cn2cnc3c([N+](=O)[O-])c(C)c(C)cc32)c1	-5	-7	8%	21	-1.5	1.0	-0.3
C=CCn1cnc2c(nnn2-c2ccc(C)c(Cl)c2)c1=O	-6	-2	12%	-36	.	0.5	0.4
CC(=O)Nc1cccc(NC(=S)Nc2cccc(Cl)c2Cl)c1	.	0	2%	17	0.6	-0.3	0.7
COc1cccc(C(=O)Oc2cc(C)[nH]c(=O)c2[N+](=O)[O-])c1	-6	1	19%	27	4.8	1.1	-0.2
CC(C)(C)C(=O)Nc1nc(-c2ccc3c(c2)OCO3)cs1	20	4	-1%	-28	-4.9	2.9	5.1
CCOc1cc(C(c2c(C)[nH][nH]c2=O)c2c(C)[nH][nH]c2=O)cc(Cl)c1O	66	8	3%	13	1.5	2.3	2.0
Cc1cc(C)c(C#N)c(SCC(=O)c2ccc(Cl)cc2Cl)n1	-2	-8	-4%	-4	3.9	1.5	-0.1
CC(=O)Nc1ccc(S(=O)(=O)N2CCN(c3ccccn3)CC2)cc1	-1	0	25%	-2	7.3	5.2	6.7
COc1cc(/C=N/NC(=O)NC2CCCCC2)ccc1O	99*	-11	9%	?	1.9	-3.0	4.4
CC(C)C(=O)N(c1cc2sc(=O)oc2c2ccccc12)S(=O)(=O)c1cccs1	-17	21	0%&26%	?	2.5	-2.9	-3.0
O=C1Cc2cc([N+](=O)[O-])ccc2N1c1c(Cl)cccc1Cl	.	4	-1%	20	-0.7	2.6	0.2
CCCCN(CC)C(=S)Nc1ccc2nc(N3CCN(C)CC3)cc(C)c2c1	.	13	9%	10	2.2	0.4	1.3
COc1ccc(CNC(=O)C2CC(C)=CCC2C(=O)O)cc1 (centres undefined)	-3	-6	-8%	4	-1.3	1.5	2.0
Cc1cc2oc(=O)cc(CN3CCOCC3)c2cc1O	.	4	8%	-10	2.7	4.2	-1.2
COc1ccc(C/C(C)=N/NS(=O)(=O)c2ccc(Br)cc2)cc1	-35	1	12%	-10	3.4	4.5	1.2
CCN(CC)CCNC(=O)c1cccc(NC(=O)C(=O)c2cc(Br)ccc2NC(C)=O)c1	.	-9	17%	0	-2.8	0.3	-3.3
CC(=O)N1CCC(C(=O)Nc2ccc(S(=O)(=O)NCCc3ccccc3)cc2)CC1	1	3	.	-10	2.1	0.7	-1.6
C[C@H](Nc1ncnc2sc3c(c12)CCC3)C(=O)O	-10	-3	0%	6	-1.6	2.7	-0.3
CCCCN(CC)CCCNC(=O)CN1C(=O)CSc2ccc(S(=O)(=O)N3CCOCC3)cc21	-3	-2	31%	-10	-6.0	2.6	1.2
COc1ccc(C(CNC(=O)COc2cc(C)c(Cl)c(C)c2)N2CCCCC2)cc1 (centres undefined)	-44	4	.	-17	.	14	3.2
COc1ccc(CCNC(=O)Cc2cc(=O)[nH]c(=O)[nH]2)cc1OC	-5	0	4%	11	4.1	0.9	0.6
CC1CC(N(C(=O)c2ccco2)c2ccccc2)c2ccccc2N1 (centres undefined)	97*	-2	-2%	-8	1.5	1.0	-2.6
O=C(NCCc1ccccc1)c1cc2ccccc2oc1=O	3	-14	3%	-9	-3.6	2.4	4.3
Cc1ccc(C(=O)NCC(=O)OCC(=O)c2c(N)n(C)c(=O)n(C)c2=O)cc1C	4	7	-9%	.	-0.9	1.8	.
O=C(CN1C(=O)CNC1=O)Nc1cc(Cl)cc(Cl)c1	-1	-1	1%	.	1.4	-5.1	.
CCNc1nc(NC(C)C)nc(N(C#N)C(C)C(=O)N(C)C)n1 (centres undefined)	0	2	?	0	3.7	-0.8	-1.2
COc1ccc(OC)c(S(=O)(=O)n2cccn2)c1	-7	-1	-6%	-7	5.7	-0.3	5.4
COCC(=O)N(Cc1cc2cc(OC)ccc2[nH]c1=O)c1ccc(C)cc1	.	-2	2%	17	-5.1	-1.8	4.5
COc1ccc(/C=N/OCC(=O)N(Cc2ccc(OC)cc2)c2ccccc2C(=O)O)cc1	?	-1	-6%	0	2.6	-1.7	2.2
Cc1nc(S(=O)(=O)N(C)Cc2ccccc2)c(C#N)c(C)c1Cl	-2	-7	13%	-12	-5.6	-1.4	-1.6
O=C(NCC(c1cccs1)N1CCOCC1)c1ccc(Cl)nc1 (centres undefined)	0	-2	-3%	.	1.7	0.1	.
COc1ccc(NC(=S)N(CCCOC(C)C)C2CCN(C(C)=O)CC2)cc1Cl	-12	4	1%	-2	1.3	2.3	-1.3
CCN(CC)S(=O)(=O)c1ccc(NCc2ccccn2)nc1	-7	-6	2%	0	-0.2	-2.4	3.2
COc1ccc(CNCCC(c2ccc(OC)cc2)c2ccccc2OC)cc1 (centres undefined)	-4	16	-3%	0	2.0	0.8	3.3
Cc1ccc(OCCNC(=O)CNC(=O)c2ccc(C)cc2)cc1	5	-5	.	3	-4.6	1.6	4.0

Sorted by length of the SMILES (falling): some entries from above
SMILES	ALR inh	Beta2AR agonist	Vif A3G	Calb FLC	LANA-H2A inh	HNF4A DNA FP	RanGTP-Imp inh
Cc1ccc(C(=O)NCC(=O)OCC(=O)c2c(N)n(C)c(=O)n(C)c2=O)cc1C	4	7	-9%	.	-0.9	1.8	.
O=C(NCC(c1cccs1)N1CCOCC1)c1ccc(Cl)nc1 (centres undefined)	0	-2	-3%	.	1.7	0.1	.
CCN(CC)S(=O)(=O)c1ccc(NCc2ccccn2)nc1	-7	-6	2%	0	-0.2	-2.4	3.2

The list continues:
SMILES	ALR inh	Beta2AR agonist	Vif A3G	Calb FLC	LANA-H2A inh	HNF4A DNA FP	RanGTP-Imp inh
Cc1ccc(C(=O)N2CCC(C(=O)NC3CCCC3)CC2)cc1	-4	4	.	2	-0.2	-4.5	3.0
c1ccc(C2Nc3ccccc3Oc3ccccc32)cc1 (centres undefined)	30	0	-4%	-2	1.5	3.1	-1.7
O=S(=O)(c1ccccc1)n1cc(-c2ccccn2)c(N2CCOCC2)n1	.	-3	4%	5	4.0	-2.4	1.4
Cc1n[nH]c(=O)c2c(NC(=O)CSc3nn(-c4ccc(F)cc4)c(=S)s3)oc(C)c12	99*	5	.	-2	-1.2	-1.4	-5.8
Cc1ccc(SCc2cn3cc(Cl)ccc3n2)cc1	.	-10	1%	-12	-4.5	0.8	5.7
CC(C)OC(=O)CSc1ncnc2c1cnn2-c1ccccc1	1	9	5%	4	0.6	1.3	2.3
CCOC(=O)c1[nH]c(C)c(C(=O)Nc2ccc3c(c2)OCCO3)c1C	-7	-2	1%	7	1.0	3.2	2.4
CCS(=O)(=O)N1CCN(c2ccccc2)CC1	56	-6	-8%	-3	-5.4	5.4	1.7
O=C(Nc1ccc(Oc2cccc(C(F)(F)F)c2)nc1)c1ccco1	-7	-8	.	1	-5.5	1.5	-0.7
COCCCn1c(SCC(=O)Nc2cccc(C(=O)OC)c2)nnc1-c1ccncc1	-5	-2	14%	-2	2.1	0.7	0.1
CCOC(=O)c1ccccc1NC(=O)Cc1sc(-c2cccnc2)nc1-c1ccc(C)cc1	-4	.	-10%	0	-2.7	.	-0.2
CN1C(=O)CC(N2CCN(c3ccc(Cl)cc3)CC2)C1=O (centres undefined)	98*	-21	1%	-2	5.9	2.5	2.3
CCOC(=O)C1=C(N)N(c2ccccc2)C(=O)C1	.	3	6%	17	-3.6	2.1	?
COc1ccc(-c2[nH]ncc2CN(C)Cc2cccnc2)c(OC)c1	.	-1	13%	-4	2.4	1.4	-3.8
COc1ccc([C@H]2CC(=O)C=C(c3ccccc3C(F)(F)F)C2)cc1	0	5	.	.	3.1	-2.8	.
CCCN1C(=O)C2C(C(=O)Nc3cccc(OC)c3)C3C=CC2(O3)C1C(=O)NC1CCCCC1 (centres undefined)	15	0	22%	-8	4.6	2.3	1.6
CCn1c(-c2ccccc2)c(C(=O)CCl)c2ccccc21	8	16	32%	9	1.3	1.9	0.9
CCOc1nc(Nc2ccc(OC)cc2)nc(OCC)n1	6	6	-3%	7	3.5	-5.6	0.0
O=C(Cn1nc(C(F)(F)F)c2c1CCC2)NC1CCCCC1	-17	-10	-3%	5	-0.2	3.3	3.5
CCOc1ccc(NC(=O)c2cc3c(=O)n(C)c4ccccc4c3n2C)cc1	-18	38	-12%	3	-0.4	3.6	3.9

Source: PubChem

No enrichment for hits (roughly 6.3% active in at least one column).
